# From PubChem BioAssay
# HNF4A DNA FP – change in binding of human HNF4 alpha to DNA | P41235 | HNF4a-FITC DNA binding, fluorescence polarization, 1 h | activity change, % at 10 µM | hit rate 0.3% among 360,000; in the data active = activity change above about 30%, passing the limit was not always enough;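 also: controls were the assay level and a saturating level of protein; the project sought stronger binding though the title names inhibitors; some compounds called inactive have numbers as strong as hits; positive values seem to mean higher polarization but the record does not say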
# Target sequence (P41235 whole entry, looked up): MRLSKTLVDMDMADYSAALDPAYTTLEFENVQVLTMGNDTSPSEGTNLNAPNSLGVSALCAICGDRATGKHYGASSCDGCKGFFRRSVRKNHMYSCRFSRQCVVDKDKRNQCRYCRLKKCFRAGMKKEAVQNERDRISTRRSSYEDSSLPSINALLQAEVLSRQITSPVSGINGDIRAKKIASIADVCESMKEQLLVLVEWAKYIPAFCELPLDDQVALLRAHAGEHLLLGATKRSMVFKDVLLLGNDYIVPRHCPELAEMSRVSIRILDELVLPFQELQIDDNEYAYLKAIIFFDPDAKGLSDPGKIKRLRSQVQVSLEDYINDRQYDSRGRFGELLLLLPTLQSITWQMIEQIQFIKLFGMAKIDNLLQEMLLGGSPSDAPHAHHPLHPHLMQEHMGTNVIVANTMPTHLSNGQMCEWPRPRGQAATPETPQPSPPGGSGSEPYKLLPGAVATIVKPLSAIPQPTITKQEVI
# ALR H2O2 inh – human ALR oxidase inhibition via reduced H2O2; purified ALR, DTT oxidation, H2O2 HRP-luminol luminescence; hit rate 3.8% among 290,000; inhibition, % (concentration not given with the values); AID 485317; P55789;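 active = mean and each replicate at 75% or more; inconclusive = only one of the two met; inactive = neither met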;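 also: stock transfer was 7.5 nL into about 7.5 µL; 0% = neutral wells and 100% = wells with inactivated enzyme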
# Target sequence (P55789 whole entry, looked up): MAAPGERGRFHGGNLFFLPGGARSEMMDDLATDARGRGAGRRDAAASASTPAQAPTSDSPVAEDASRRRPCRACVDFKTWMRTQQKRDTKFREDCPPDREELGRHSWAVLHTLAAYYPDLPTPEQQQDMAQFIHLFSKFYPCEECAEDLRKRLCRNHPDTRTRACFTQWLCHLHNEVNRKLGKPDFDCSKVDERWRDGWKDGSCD
# Calb FLC – C. albicans growth modulation with fluconazole; hit rate 0.57% among 300,000; C. albicans CaCi-2 (fluconazole-resistant clinical isolate) + fluconazole, Alamar Blue growth, 48 h; growth inhibition, % (no concentration beside the values); AID 1979;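 active = most replicates above 75%; inconclusive = exactly half above 75%; inactive = most below 75%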;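 also: all wells also contain fluconazole at 8 µg/ml as a sub-toxic cotreatment; 0% = median of DMSO wells and 100% = median of geldanamycin control wells; wells of about 8 µL received 7.5 nL stock; the first replicate is given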
# Beta2AR agonist – activates human beta-2 adrenergic receptor causing internalization | P07550 | Am2.2-beta2AR cells, FAP receptor internalization, flow cytometry; reference of the scale not given here | response, % (no concentration beside the values) | hit rate 0.43% among 340,000;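 active = response above a set limit, near 3 SD of response in nonfluorescent compounds, cut at about 42% in these data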;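 also: stock transfer was 100 nL into about 11 µL; a reference agonist was the positive control; negative values mostly stem from fluorescent compounds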
# Target sequence (P07550 whole entry, looked up): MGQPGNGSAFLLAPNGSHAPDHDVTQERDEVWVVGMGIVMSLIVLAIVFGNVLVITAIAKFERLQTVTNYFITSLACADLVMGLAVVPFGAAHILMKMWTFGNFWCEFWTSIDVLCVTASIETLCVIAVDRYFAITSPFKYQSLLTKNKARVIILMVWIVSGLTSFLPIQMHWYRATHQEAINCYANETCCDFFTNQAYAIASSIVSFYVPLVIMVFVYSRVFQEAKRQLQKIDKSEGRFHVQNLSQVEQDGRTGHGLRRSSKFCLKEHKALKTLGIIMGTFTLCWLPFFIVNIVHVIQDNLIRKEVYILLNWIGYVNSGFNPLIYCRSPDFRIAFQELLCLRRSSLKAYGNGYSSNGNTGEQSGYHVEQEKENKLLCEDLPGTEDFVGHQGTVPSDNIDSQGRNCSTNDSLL
# Vif A3G – inhibitors of Vif binding to APOBEC3G peptide, primary screen, biochemical, TR-FRET, GST-Vif 1-94, biotin-A3G peptide, dose response retest (AID 1117319); hit rate 0.57% among 260,000; TR-FRET GST-Vif / biotin-A3G peptide binding; higher % means a stronger effect; test concentration not given here; strong numbers were not always called active; inhibition, %; hits with a dose series show IC50 in µM;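 active = above the screen mean plus three standard deviations and confirmed in dose response; inconclusive = results disagree or hit not tested in dose response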;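 also: Vif residues 1-94 fused to GST binding biotinylated APOBEC3G peptide 110-148; 0% = full assay without inhibitor and 100% = GST in place of GST-Vif; retest series ran down from 100 µM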
# LANA-H2B inh – blocks KSHV LANA binding to histone H2A/H2B | Q9QR71 | cell-free LANA-H2A/H2B peptide, fluorescence polarization | inhibition, % (test concentration not listed) | hit rate 0.6% among 320,000; in the data active = inhibition mostly above about 10%, no sharp cut-off; inactive = mostly below about 6.7%;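 also: stock transfer was 7.5 nL into about 10 µL; 0% = median of vehicle wells and 100% = median of positive control wells; one replicate is shown; the record names a cut of 25% in any replicate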
# RanGTP-Impb inh – disruptors of Ran-importin-beta complex formation – biochemical, FRET, CFP-Ran, YFP-importin-beta, homogeneous, primary screen; cell-free CFP-Ran/YFP-importin-beta FRET ratio; hit rate 1.1% among 300,000; inhibition, % (no concentration beside the values);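 active = most replicates above 15%; inconclusive = exactly half above 15%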;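 also: 0% = DMSO wells and 100% = Ran loaded with GDP instead of GTP; wells of about 40 µL received 100 nL stock; the first replicate is given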
# The depositor's hits bear a star; ? = inconclusive; . = no result given; & = joins results of further samples.
# Every second line gives: Calb FLC | HNF4A DNA FP | RanGTP-Impb inh | ALR H2O2 inh | LANA-H2B inh | Vif A3G | Beta2AR agonist
Cc1cc(C)c(C#N)c(N)n1
    -4 | 0.3 | 7.2 | -7 | 5.2 | 1% | 7
c1nc(NC2CCCC2)c2[nH]cnc2n1
    4 | 2.8 | -0.1 | -2 | -4.4 | -4% | 5
Cc1ccc(C)c(N=C2CCCN2Cc2ccccc2)c1C#N
    31 | 0.4 | 0.0 | -8 | 1.1 | 5% | 20
O=S(=O)(Nc1ccc2nc(N3CCOCC3)sc2c1)c1ccc(Cl)cc1
    . | 3.8 | . | -2 | -3.8 | -16% | -3
COc1ccc2c(c1)c1nnc(SC)nc1n2C
    2 | 1.1 | 0.5 | -5 | -0.3 | -3% | -12
COc1ccc(-n2nc(C(=O)NCC(=O)NCCC3=CCCCC3)c3ccccc3c2=O)cc1OC
    -22 | 3.5 | 1.9 | -6 | 1.5 | . | -1
COc1ccc(NC(=O)COC(=O)c2ccncc2)c(OC)c1
    -5 | -5.3 | 1.9 | -6 | -6.6 | -21% | 8
CCN(CC)c1ccc(C(=O)OCC(=O)N(C)Cc2ccccc2)cc1
    -6 | 2.7 | 0.7 | 12 | -6.3 | 3% | 8
Cc1nc(=O)c(-c2ccccc2)c(C)n1-c1ccccc1O
    4 | -2.9 | -4.9 | 1 | -3.0 | 4% | 4
Cc1ccc(C(=O)N2c3ccccc3CC2C)o1 (configuration not stated)
    -6 | -1.3 | 2.2 | -1 | 3.9 | . | 6
CSc1ccc(S(=O)(=O)Nc2ccc(F)cc2)cc1
    -12 | -1.6 | 1.1 | -8 | 2.2 | ? | -4
CCOC(=O)CCC(=O)NCc1ccc2c(c1)cc(C)n2C
    -9 | -5.4 | -0.5 | -29 | 1.3 | ? | 0
Cc1[nH]c2ccc(C(=O)N3CCCC3)cc2c1C
    6 | 5.5 | 5.9 | 90* | -3.2 | . | 4
CCOc1ccc(CNC(=O)c2ccc3c(c2)N(CC)CCS3)cc1
    0 | -0.9 | 0.7 | 35 | 0.5 | . | 1
Cn1c(SCc2nc3cc(C(=O)O)ccc3c(=O)[nH]2)nnc1C(F)(F)F
    -1 | -2.1 | 3.5 | 4 | -2.1 | 6% | 3
COc1ccccc1/C=N/NC(=O)C(=O)Nc1ccccc1OC(F)(F)C(F)F
    5 | -1.1 | 0.7 | -2 | -1.2 | 12% | -7
CCOc1ccc(N2CC(C(=O)N3CCCCCC3)CC2=O)cc1 (configuration not stated)
    -15 | -2.5 | 0.3 | -1 | 2.8 | . | 7
COc1ccc(CN(C)Cc2ccccc2)c(OC)c1OC
    2 | 1.3 | 5.7 | -18 | -2.8 | -11% | 3
CCOc1ccccc1C(=O)N(CN1CCCC1=O)c1cccc(Cl)c1
    8 | 3.5 | 0.4 | 0 | 0.5 | 2% | -3
COc1ccc(S(=O)(=O)N2CCCCC2)cc1NC(=O)C1CC(=O)N(Cc2ccccc2)C1 (configuration not stated)
    . | 1.1 | . | -16 | 0.2 | -3% | -5
CC1Cc2ccccc2N1C(=O)CSc1nnnn1C (configuration not stated)
    6 | 2.9 | 2.9 | -19 | -2.8 | -1% | -8
CS(=O)(=O)N(Cc1ccc(Cl)cc1)c1ccc(C(=O)NCc2ccccn2)cc1
    0 | 25 | -1.0 | -2 | -1.3 | -9% | -7
O=C(CNC(=O)c1cnccn1)Nc1ccc(F)c(F)c1F
    -7 | -0.2 | 1.5 | -1 | -2.0 | -1% | 6
Cc1n(Cc2ccccc2)c2ccccc2[n+]1Cc1ccccc1
    -1 | -0.4 | -1.1 | -7 | -6.1 | . | 1
CCOc1ccc(NC(=O)CN(c2ccc(OCC)cc2)S(=O)(=O)c2c(C)[nH]c(=O)[nH]c2=O)cc1
    -26 | 1.1 | 0.5 | . | 5.9 | 9% | -4
CCOC(=O)c1nc2c(=O)n(C)c(=O)n(C)c2n(C)c1=O
    1 | 2.1 | 0.6 | -14 | 2.4 | . | 4
O=C(COc1ccccc1F)Nc1ccc2[nH]c(=O)[nH]c2c1
    0 | 1.2 | -0.9 | -9 | 1.2 | -3% | 6
Cc1cccc(NS(=O)(=O)c2cccc(C(=O)Nc3cccc(C(=O)O)c3)c2)c1
    -4 | -3.7 | 1.9 | -7 | -1.2 | . | 2
COCc1cc(NCc2ccc(Cl)cc2)nc(C)n1
    0 | -0.5 | 0.9 | 1 | 3.1 | -9% | -7
CCN(CC)C(=O)Cn1nc(-c2ccncc2)nc1SCC(=O)Nc1ccc(OC)cc1
    -2 | -1.5 | 1.4 | . | -5.1 | . | 2
COc1ccc(C(=O)NCc2nnc(SCC(=O)NC3CCCCC3)n2C)cc1
    -5 | -2.1 | 1.6 | 1 | -0.2 | . | -6
CCOc1ccc(C2C(C(=O)NC)=C(C)Nc3nc4ccccc4n32)cc1OC (configuration not stated)
    4 | -1.0 | 0.4 | -28 | 1.9 | . | -7
COCCN(C(=S)Nc1ccccc1OC)C1CCN(C(C)=O)CC1
    -3 | 1.0 | 1.9 | -3 | -1.1 | . | 1
CCCNC(=O)c1ccc(COc2ccc(C(C)(C)C)cc2)o1
    12 | -1.6 | 3.3 | -6 | 2.6 | 6% | 7
O=C1OCCN1C(=O)[C@H]1[C@H](c2ccc(Cl)cc2)C(c2ccc(F)cc2)=NN1c1ccc(Br)cc1
    . | 0.3 | . | . | . | 0% | 0
Cn1cnnc1SCCCN1C(=O)c2cccc3cccc(c23)C1=O
    15 | 2.5 | 2.1 | -7 | 1.1 | -4% | 12
CCOc1ccccc1N=Cc1c(O)n(C)c(=O)n(C)c1=O
    4 | -3.1 | 2.3 | . | . | 13% | -11
Fc1ccccc1CSc1ncnc2c1oc1ccccc12
    ? | -2.1 | -1.2 | -39 | 2.9 | -2% | -6
CCOC(=O)NC(=O)c1cn(C(CC)CO)c(=O)[nH]c1=O (configuration not stated)
    -6 | -5.6 | -0.6 | 5 | -0.2 | 1% | -6
CC(C)(C)NC(=O)CSC(=Nc1ccc(F)cc1)NC#N
    4 | 0.8 | -2.9 | 14 | 11 | 1% | -3
CCC(C)(C(=O)NC1CCCC1)N(CC1CCCO1)C(=O)CNC(=O)c1ccccc1 (configuration not stated)
    1 | 2.0 | 0.2 | 5 | 0.4 | 5% | -2
CCOC(=O)C1(Cc2cccc(F)c2)CCN(Cc2cnn(CC)c2C)CC1
    9 | 4.1 | ? | -1 | -4.5 | -8% | -6
CCOC(=O)C1CCN(C(=O)c2c(-c3c(Cl)cccc3Cl)noc2C)CC1
    -27 | 0.0 | 6.8 | -1 | -4.7 | -2%&5% | 14
COCCC(=O)N1CCC(Oc2ccc(C(=O)N3CCCCC3COC)cc2)CC1 (configuration not stated)
    18 | -3.9 | 2.3 | 2 | 0.9 | . | 2
Nc1c(C(=O)O)ccc2c1C(=O)c1ccccc1C2=O
    16 | 1.1 | -2.8 | -3 | 0.5 | . | 10
CCCCCOc1ccc(OC(=O)c2ccncc2)cc1
    1 | 2.6 | -2.9 | -6 | -3.4 | 4% | -4
Cn1nnnc1Sc1ncnc2scc(-c3ccc(C(F)(F)F)cc3)c12
    . | -3.5 | . | 29 | -4.2 | . | 36
CCN(CC(=O)Nc1ccc(Br)cc1F)CC(=O)NC1CCS(=O)(=O)C1 (configuration not stated)
    . | -2.3 | . | -2 | -193 | 5% | 3
COc1ccc(NC2=NCC(=O)N2Cc2cccs2)cc1
    9 | -2.9 | 3.1 | 5 | 1.8 | 5% | 3
S=C(NCCN1CCOCC1)Nc1ccc(Nc2ccccc2)cc1
    16 | -2.0 | -4.3 | 99* | 1.1 | 25% | -5
O=C(Nc1cccc(C(F)(F)F)c1)C(=O)N1CCCCC1
    6 | 1.4 | -3.3 | -30 | 1.8 | -7% | 0
CCOC(=O)Cc1cc(=O)n(-c2nc3ccccc3s2)[nH]1
    1 | 9.0 | 0.4 | 98* | 4.6 | ? | 6
NC(=O)c1ncn([C@@H]2O[C@H](CNC(=O)[C@H](N)CSCc3ccccc3)[C@@H](O)[C@H]2O)n1
    . | 2.2 | . | . | . | -2% | -1
CCOC(=O)Cc1csc(NC(=O)Nc2ccc(OC(F)(F)F)cc2)n1
    38 | -0.1 | 8.2 | -1 | 3.9 | -4% | 0
Cc1ccc(NC(=O)CSc2nc(=O)n(CCCN3CCOCC3)c3c2CCCC3)cc1F
    1 | 3.5 | -0.8 | 97* | 8.0 | 4% | -5
Cc1ccc(C(=O)NCC(=O)OCCCOC(=O)CNC(=O)c2ccc(C)c(C)c2)cc1C
    . | -7.0 | . | . | -0.6 | 13% | -1
O=C(N/N=C\c1cccc(Cl)c1)c1ccc(Cn2cccn2)o1
    -3 | -1.0 | -0.8 | 88* | 1.3 | 3% | -4
C=CCCCCCCCCC(=O)N1CCN(c2cc3c(cc2F)c(=O)c(C(=O)O)cn3CC)CC1
    -2 | 1.8 | -2.6 | -31 | 1.4 | -3% | 14
COc1ccc(C(=O)NCC(=O)N/N=C/c2ccco2)cc1OC
    33 | -0.2 | 3.2 | . | 3.7 | . | -144
COc1ccc(CSc2nncn2C)cc1F
    -8 | 2.7 | 0.6 | 0 | -3.5 | 0% | 6

# The list goes on:
# Every second line gives: Calb FLC | HNF4A DNA FP | RanGTP-Impb inh | ALR H2O2 inh | LANA-H2B inh | Vif A3G | Beta2AR agonist
NC(=O)Cc1ccc(C(=O)c2ccc(F)cc2)s1
    29 | -0.1 | -0.2 | 7 | -0.3 | -4% | -10
CN(C)CCCOc1ccc(Cl)cc1Br
    -11 | -2.6 | 2.7 | -13 | 1.1 | ? | -1
CCSc1nnc(-c2ccccc2SC)o1
    11 | 0.5 | 5.4 | -31 | 6.4 | -6% | -5
COc1ccc(NC(=O)/C(=C\c2ccc3c(c2)OCO3)NC(C)=O)cc1
    -30 | -0.1 | -3.5 | -4 | -6.6 | . | 0
Cc1ccc(S(=O)(=O)N(c2cccc(C(F)(F)F)c2)C2C=CS(=O)(=O)C2)cc1 (configuration not stated)
    0 | -2.9 | 3.1 | -2 | -3.5 | 17% | 7
CC(=O)Oc1cc2c(C(C)=O)coc2c2ccccc12
    12 | 2.6 | -3.2 | . | 0.0 | -2% | 11
COc1ccc(-c2nnc(SCC(=O)NCCc3ccc(S(N)(=O)=O)cc3)o2)cc1OC
    -4 | 2.7 | -1.2 | . | 1.3 | -2% | 2
Cc1ccc(N2C(=O)c3ccccc3C2Nc2ccc(S(=O)(=O)N3CCCCC3)cc2)nc1 (configuration not stated)
    12 | -2.8 | 1.7 | -5 | -0.3 | 4% | -2
S=C(Nc1ccc(Br)cc1Cl)N1CCC2(CC1)OCCO2
    30 | 0.2 | -3.8 | -13 | 0.1 | ? | -1
CSc1nccc(Oc2ccccc2Cl)n1
    1 | -2.6 | 4.0 | 2 | -4.2 | . | 0
Cn1nc(C(=O)N2CCCCC2)c2c1-c1ccccc1S(=O)(=O)C2
    -4 | -3.6 | 24 | 4 | -2.1 | -2% | 6
O=C(CSc1n[nH]c(-c2ccncc2)n1)NC1CCS(=O)(=O)C1 (configuration not stated)
    -10 | -0.2 | -0.6 | . | 3.4 | 22% | -8
COc1ccc(CC(=O)N/N=C(\C)CC(=O)NCc2ccco2)cc1OC
    -4 | 1.5 | 4.0 | -2 | 2.5 | 5% | -4
O=[N+]([O-])c1cc(/C=N/O)ccc1SCc1ccccc1
    15 | 1.0 | 1.6 | 0 | 0.1 | 0% | -2
Cc1ccc(CSc2nc3nc(C)cc(C)n3n2)cc1
    -1 | -1.3 | -5.0 | -2 | 0.6 | . | -9
O=C(NC12CC3CC(CC(C3)C1)C2)c1cc([N+](=O)[O-])ccc1Cl
    -7 | 4.4 | 3.1 | . | 5.2 | . | -8
